# Screens deposited in PubChem BioAssay by National Center for Advancing Translational Sciences (NCATS).
# Vaccinia Venus: qHTS for Stage-Specific Inhibitors of Vaccinia Orthopoxvirus: Venus Reporter Primary qHTS; Vaccinia virus Venus reporter expression, fluorescence; Potency, µM (doses to about 36.5 µM), for inactives: at the highest dose activity change, negative = inhibition, most hits filed as inhibitors; 330,000 tested, 0.46% active; active means well fitted inhibition curve with a large enough effect; inconclusive means small, poorly fitted or top-dose-only effect; inactive means no such curve, though single readings can be large or run the other way; tested in A549 cells; note: nearly all actives have a fitted effect of over 30% in size; inactives centre near -10
# VACV mCherry inh: qHTS for Stage-Specific Inhibitors of Vaccinia Orthopoxvirus: mCherry Reporter Primary qHTS. Vaccinia virus mCherry reporter infection, fluorescence; about a quarter of the inactives have no number. Potency, µM (top dose mostly 36.5 µM), without a hit: top-dose activity change, negative = inhibition, usual class: inhibitors. 310,000 tested, 0.63% active; active = well fitted inhibition curve with a large enough effect; inconclusive = small, poorly fitted or top-dose-only effect; inactive = no such curve, though single readings can be large or run the other way; tested in A549 cells; note: nearly all actives have a fitted effect of over 35% in size; inactives centre near -10
# * marks the source's active call; other numbers are inactive results; i = inactive; ? = inconclusive; . = not tested or not shown; [ ] = remark or other dose. % is set by controls: 0 for no effect and ±100 for the full control effect; potency is the fitted concentration of half-maximal effect.
SMILES,Vaccinia Venus,VACV mCherry inh
COc1ccc(C(OC(=O)c2ccco2)C(=O)NC2CCCC2)cc1 (stereo not drawn),-0.3%,i
CCOC(=O)c1c(C)[nH]c(C(=O)COC(=O)CNC(=O)C2CCCCC2)c1C,1.9%,-2.8%
COc1cc2nc(N3CCN(c4cc(C)ccc4C)CC3)nc(N)c2cc1OC,10µM*,?
CC(C)CCNC(=O)CCCOc1cc(=O)n(C)c2ccccc12,-7.6%,i
Cn1cc(C(=O)N/N=C/c2ccc([N+](=O)[O-])cc2)c2ccccc21,-13.0%,-5.8%
CCCC(=O)OC/C(O)=C(\C#N)c1nc2ccccc2[nH]1,11.1%,13.5%
CCCNC(=O)/C(=C/c1cn(S(=O)(=O)N(C)C)c2ccccc12)NC(=O)c1ccc(OC)cc1,-8.9%,-6.3%
CCOC(=O)c1c(C)[nH]c(C)c1S(=O)(=O)N(C)CC(=O)N1CCN(c2ccccc2)CC1,-5.2%,-11.2%
Nc1ccn([C@@H]2O[C@H](CNCc3cccc(OC4CCCC4)c3)[C@@H](O)[C@H]2O)c(=O)n1,-2.2%,i
COc1ccc(CNC(=O)C2CCCN(S(=O)(=O)c3ccc4c(c3)C(C)(C)C(=O)N4C)C2)cc1 (stereo not drawn),-15.9%,i
CN(C(=O)c1ccc2c(c1)SC1=NS(=O)(=O)CCN12)C(c1ccccc1)c1ccccc1,-3.0%,-10.5%
COC(=O)c1ccc(/C=C/C(=O)c2cccc(OC)c2)cc1,-20.2%,-3.4%
Cc1cc(OCC(=O)N(Cc2sccc2C)C2CCS(=O)(=O)C2)ccc1Cl (stereo not drawn),-3.4%,-15.5%
COc1ccccc1OCCn1cc(C(=O)C(C)C)c2ccccc21,-19.3%,-0.5%
CCOc1ccc(-c2cc(C(=O)NCc3ccc(OC)cc3)c3c(-c4ccc(F)cc4)[nH]nc3n2)cc1,4.4%,1.9%
CCn1c(CN2CCCCC2)nc2cc(NC(=O)c3ccccc3[N+](=O)[O-])ccc21,-10.8%,-12.4%
O=C(COCc1cc(-c2ccc(F)cc2)on1)Nc1cc(Cl)ccc1O,-5.7%,-12.1%
C/C(=N\NC(=S)Nc1ccc(C(C)C)cc1)c1ccc2c(c1)OCO2,-8.1%,-9.1%
On1c(-c2ccc(Cl)cc2)nc2ccccc21,-8.8%,-11.9%
CC1(C)OC2C(CO)OC(n3cnc4c(=S)nc[nH]c43)C2O1 (stereo not drawn),-15.3%,-7.2%
CCNS(=O)(=O)c1ccc(CCC(=O)NC2CCCC2)cc1,3.7%,-7.9%
CCOC(=O)Cn1ccc(-c2ccccc2)c(C#N)c1=O,-13.2%,-5.8%
CC(=O)Nc1ccc(S(=O)(=O)N2CCN(CC(=O)N3CCOCC3)CC2)cc1,7.7%,i
CCCCC(=O)Nc1cccc(C(=O)N/N=C/c2ccc(OC)cc2OC)c1,0.0%,-12.4%
CN(Cc1ccccc1)C(=O)c1[nH]cnc1C(=O)N[C@@H](CCCCNC(=O)OC(C)(C)C)C(=O)OC(C)(C)C,-25.4%,i
Cc1cc(NC(=O)c2ccc3c(c2)C(=O)N(C(C)(C)C)C3=O)no1,-8.9%,i
Nc1cc(-c2nn[nH]n2)ccc1F,-4.2%,.
Cc1cccc(OCc2nc(C#N)c(NCCN(C)C)o2)c1,-15.9%,i
Cc1cccc(C(=O)NCc2nnc(SCC(=O)NC3=NCCS3)n2C)c1,-6.8%,-13.3%
FC(F)(F)COc1nc(OCC(F)(F)F)nc(N2CCN(c3ccccc3)CC2)n1,?,.
COc1cccc(C2/C(=C(/O)c3ccc4c(c3)CC(C)O4)C(=O)C(=O)N2c2nnc(C)s2)c1 (stereo not drawn),-5.1%,i
COC(=O)c1ccc(NS(=O)(=O)c2ccc3c(c2)n(C)c(=O)c(=O)n3C)cc1,-4.6%,-7.4%
O=c1cc(-c2cccc(O)c2)oc2ccc(O)cc12,-18.1%,-8.8%
Cc1ccc(S(=O)(=O)N2C=CC(C(F)(F)F)=NCC2)cc1,-2.3%,-7.9%
O=C(O)c1ccccc1SC1CC(=O)N(c2ccc3c(c2)OCO3)C1=O (stereo not drawn),-5.1%,i
CCCSc1nnc2n(-c3ccc(OC)cc3)c(=O)c3c4c(sc3n12)COC(C(C)C)C4 (stereo not drawn),-25.9%,?
CCOC(=O)C1CCN(S(=O)(=O)c2cn(C)cn2)CC1,-3.9%,-14.8%
O=C(O)c1cc(O)ccc1O,-17.7%,-17.3%
COc1cc(-c2nc3cnccn3c2Nc2ccc(C)cc2)ccc1O,-16.3%,?
COc1ccc(C(=O)Nc2ccc3nc(N4CCCCC4)cc(C)c3c2)c(OC)c1,16.1%,-4.8%
CN(C)S(=O)(=O)c1cccc(NC(=S)N2CCCCC2CO)c1 (stereo not drawn),-12.7%,-14.5%
CCC(=O)N1CCN(c2nnc(-c3ccccc3)c3ccccc23)CC1,-10.5%,-0.1%
O=C(C1CCCN(S(=O)(=O)c2ccccc2[N+](=O)[O-])C1)N1CCN(c2ccccc2)CC1 (stereo not drawn),-24.4%,?
COc1cc(/C=C/c2ccc3cccc(O)c3n2)cc(Br)c1OC,-3.3%,?
CCC1(C)Cc2c(sc3nc(SCC(=O)O)[nH]c(=O)c23)CO1 (stereo not drawn),2.0%,i
COc1ccc(C(=O)NC(=S)Nc2ccc(S(=O)(=O)Nc3cc(C)on3)cc2)cc1OC,-13.0%,-11.5%
Cc1ccc(NC(=O)CN(C)C(=O)c2cc(C)on2)cc1,-0.6%,-12.8%
Cn1cccc1C(=O)NC(=O)COC(=O)CNS(=O)(=O)c1ccc(Br)cc1,-8.7%,.
CCCC(C)(C)C(=O)N1CCC1(C)C(=O)Nc1ccc(OC)c(OC)c1 (stereo not drawn),7.9%,-3.0%
O=C(NCCCN1CCOCC1)c1ccc(NC(=O)C2COc3ccccc3O2)cc1 (stereo not drawn),-16.2%,i
CCn1c(SCC(=O)NC2CCS(=O)(=O)C2)nnc1-c1ccccc1 (stereo not drawn),-9.2%,-1.3%
CC(=O)C1=C(c2ccccc2)NC(=O)NC1c1cccs1 (stereo not drawn),-5.9%,-13.6%
Nc1ccn([C@@H]2O[C@H](CN=C3NS(=O)(=O)c4ccccc43)[C@@H](O)[C@H]2O)c(=O)n1,-22.7%,-8.7%
CSc1ncccc1C(=O)N1CCCC(C(=O)c2ccc3ccccc3c2)C1 (stereo not drawn),-6.3%,-1.8%
Cn1c(N)c(C(=O)COC(=O)c2ccc(Br)o2)c(=O)n(C)c1=O,-18.7%,.
COc1cccc(N2CCN(c3cnc4ccccc4n3)CC2)c1,-6.9%,-30.6%
CN1CCC(=NOc2ccc([N+](=O)[O-])cc2)CC1,-5.8%,7.2%
Cc1cccc(NC(=S)NC2CCCCC2)n1,-14.0%,-10.6%
c1ccc(CN2Cc3ccccc3-n3nncc3C2)nc1,-6.0%,-14.2%
Cc1ccccc1NC(=O)C1CCCN1S(=O)(=O)c1cccc2cccnc12 (stereo not drawn),3.5%,15.0%

# Further records
SMILES,Vaccinia Venus,VACV mCherry inh
CC(C)OCCCNC(=O)[C@H]1N2C(=O)c3ccccc3C2SC1(C)C (stereo partly drawn),-2.1%,-4.3%
Cc1ccccc1OC(C)C(=O)Nc1ccc(S(=O)(=O)Nc2nccs2)cc1 (stereo not drawn),-1.4%,-9.1%
Cc1ccccc1S(=O)(=O)N(C)C[C@H]1OCc2cnnn2CCCC(=O)N([C@H](C)CO)C[C@H]1C,-6.5%,i
Cc1cc(=O)[nH]c2nc3ccccc3n12,-7.7%,i
C/C=C1\C2C=C(C)C[C@@]1(N)c1ccc(=O)[nH]c1C2,-7.5%,-6.7%
CN(CC(=O)Nc1ccc(Cl)c(C(F)(F)F)c1)C(=O)CCc1nc2ccccc2c(=O)[nH]1,-9.0%,6.9%
Cn1ccc2c(-c3ccc(F)cc3F)cc3c(c21)C1CCC3C1 (stereo not drawn),9.7%,36.4%[activator]
C[C@@H]1CN([C@H](C)CO)C(=O)c2cc(NC(=O)C3CCCCC3)ccc2O[C@@H]1CN(C)Cc1ccncc1,-9.8%,-10.2%
COc1ccc(N2CCN(C(=O)COC(=O)COc3ccc(C#N)cc3)CC2)cc1,-8.5%,i
COCc1nnc(NS(=O)(=O)c2ccc(NC(C)=O)cc2)s1,-0.7%,-12.3%
CCCn1nc(C(=O)Nc2ccc3nc(C)sc3c2)c2ccccc2c1=O,-16.3%,-11.3%
Cc1ccc(N2CCN(C(=O)C3CCN(S(=O)(=O)c4ccc5c(c4)oc(=O)n5C)CC3)CC2C)cc1 (stereo not drawn),-17.7%,-21.5%

# Entries of single compounds from above. Screens in order: Vaccinia Venus, VACV mCherry inh
# Entry for CCCC(=O)OC/C(O)=C(\C#N)c1nc2ccccc2[nH]1 = 11.1%, 13.5%
# Entry for CCn1c(CN2CCCCC2)nc2cc(NC(=O)c3ccccc3[N+](=O)[O-])ccc21 = -10.8%, -12.4%
# Entry for COc1cccc(C2/C(=C(/O)c3ccc4c(c3)CC(C)O4)C(=O)C(=O)N2c2nnc(C)s2)c1 (stereo not drawn) = -5.1%, i

# Three entries from above, with bars between the fields:
Molecule | Vaccinia Venus | VACV mCherry inh
COc1ccc(C(=O)NC(=S)Nc2ccc(S(=O)(=O)Nc3cc(C)on3)cc2)cc1OC | -13.0% | -11.5%
Cc1ccc(NC(=O)CN(C)C(=O)c2cc(C)on2)cc1 | -0.6% | -12.8%
Cn1cccc1C(=O)NC(=O)COC(=O)CNS(=O)(=O)c1ccc(Br)cc1 | -8.7% | .

# (continued)
SMILES,Vaccinia Venus,VACV mCherry inh
Cc1c(CNCC(C)c2ccccc2)c(C(=O)O)c(C)n1Cc1ccccc1 (stereo not drawn),2.6%,-2.9%
CCOc1ccc2c(c1)C(c1ccc(C)o1)=NNC(c1ccncc1)=N2,-10.8%,-5.1%
Cc1ccc(C(=O)Oc2c(S(=O)(=O)c3ccccc3)c(C)nn2-c2ccccc2)cc1,-19.2%,-22.9%
CC1CN(C(=O)N2CCC(C(=O)NCCCc3ccccc3)CC2)c2ccccc2O1 (stereo not drawn),-14.2%,-5.9%
CCOc1ccc(OCCC(=O)NNC(=O)c2cc(OC)c(OC)c(OC)c2)cc1,-3.3%,-8.0%
COc1ccc(CN2CN(S(=O)(=O)c3ccccc3)c3nc4ccccc4nc32)cc1,-0.7%,i
O=C(c1cnn2c(C(F)(F)F)cc(-c3ccccc3)nc12)N1CCOCC1,-5.7%,i
Cc1ccc(-c2ccc(/C=N/N3C(=O)C4C5C=CC(CC5)C4C3=O)o2)c([N+](=O)[O-])c1 (stereo not drawn),-6.5%,-0.9%
CCc1nc(C)cn1S(=O)(=O)c1ccc(Cl)c(Cl)c1Cl,-13.0%,-21.2%
O=C(O)C1CCN(C(=O)OCc2ccccc2)CC1,?,-15.8%
CC1CCN(S(=O)(=O)c2ccc3nc(NCc4ccc(N(C)C)cc4)ccc3c2)CC1,?,?
Cc1ccc(-c2nc(CS(=O)(=O)CC(=O)Nc3cc(C)ccc3C)c(C)o2)cc1,-8.4%,-1.0%
CCOC(=O)C(C)Sc1nc(N2CCOCC2)c2c(c1C#N)CC(C)(C)OC2 (stereo not drawn),-9.2%,i
CCN(C(=O)COC(=O)c1c(-c2ccccc2)noc1C)c1c(N)n(Cc2ccccc2)c(=O)[nH]c1=O,-13.6%,-16.8%
Cc1ccc(CCNC(=O)c2ccc(Nc3nc4ccccc4n4nnnc34)cc2)cc1,-29.9%,?
O=C(CN1CCN(C(=O)c2ccco2)CC1)Nc1cc(C(F)(F)F)ccc1Cl,-15.1%,.
COc1ccc2cc3c(N)c(C(=O)N4CCCC4)sc3nc2c1,-4.5%,.
COc1ccc([N+](=O)[O-])cc1NC(=O)C1(c2ccc(OC)c(OC)c2)CCOCC1,-3.7%,-7.1%
Cc1ccc(-c2nc(NCCCO)c3ccccc3n2)cc1,-13.8%,-12.1%
OCCN=C1CCCc2c1[nH]c1ccc(Br)cc21,-21.1%,-17.4%[1.46 µM]
CCCOc1ccc(Oc2ccc(S(=O)(=O)N3CCN(C)CC3)cn2)cc1,-14.2%,i
COc1ccc(Cl)cc1-n1c(=S)sc2c(=O)[nH]c(SCC(=O)NCCC(C)C)nc21,-1.0%,i
COc1ccc(CN(CCN(C)C)c2ncccn2)cc1,?,-13.2%
Oc1[nH]c2ccccc2c1N=Nc1ccccc1Cl,-0.6%,i
CCc1ccc(CNC(=O)C2COc3ccccc3C2)cc1 (stereo not drawn),-5.1%,-3.2%
CCCCCCOC(=O)Nc1ccc(S(=O)(=O)Nc2cccc([N+](=O)[O-])c2)cc1,-7.2%,i
CC(C)(C)C(=O)N1CCN(S(=O)(=O)c2ccc3c(c2)OCCCO3)CC1,-12.9%,-11.5%
CC1CCN(S(=O)(=O)c2cn(CC(=O)N3CCN(C)CC3)c(=O)c3ccccc23)CC1,-2.2%,i
CCCCOC(=O)CCc1nc2ccccc2[nH]1,-4.5%,-6.9%
COC(=O)N1C(=O)[C@@](c2ccccc2)(C2CCCCC2)N1C(=O)OC,?,?
c1ccc(CNc2ccc3ccccc3n2)nc1,-2.5%,-13.3%
C/C(=N/N=C(\C)c1ccccc1O)c1ccccc1O,8.4%,-20.1%
Nc1ccc2c3c(cccc13)-c1ccccc1-2,6.2%,?
CCOc1ccc(-c2cnc(NCc3cccc4ccccc34)n2CCOC)cc1,?,?
Cn1ccnc1/C(=N\NC(=O)c1ccc(O)cc1)c1cccc([N+](=O)[O-])c1,-8.7%,-15.5%
CC(=O)c1cccc(NC(=O)c2nc(-c3ccccc3)oc2C)c1,-4.2%,i
COc1ccc(/C=N/Nc2nc(N3CCCC3)nc(N3CCCC3)n2)cc1O,-21.0%,-4.3%
Cc1cc(Cl)ccc1NC(=S)NCc1cccs1,?,?
